# From PubChem
# CtBP-E1A inh = blocks the CtBP interaction with E1A | AlphaScreen GST-E1A/His-CtBP binding, 1536-well; hits give low values; control for the full effect not named in the record | activity change, % (concentration not given with the values) | 340,000 tested, 0.49% active | AID 651724; in the data active means activity change below about -65%; inconclusive means about -30% to -65%; inactive means above about -30%; also: % is scaled to controls: 0 for no effect and ±100 for the full control effect
#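 Homogeneous bead-based format: GST-tagged E1A captured on glutathione donor beads, His-tagged CtBP on nickel acceptor beads; compounds precede bead addition by 2 h at 37 °C.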
# D2 PAM = potentiates the human D2 dopamine receptor allosterically | P14416 | DiscoveRx D2 beta-arrestin cells, luminescence, 90 min; 100% = 57 uM dopamine signal | AID 624464 | 360,000 tested, 0.23% active | potentiation, % (test concentration not listed); active = potentiation of 50% or more; inconclusive = 30% to 50%; inactive = 30% or less;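 also: compound concentration not given in the record; tested on top of an EC20 dose of dopamine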
#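 PathHunter D2 cells, attached overnight at 37 deg C, received compound in DMSO plus dopamine at EC20 (50 nM final) for 90 min at 37 deg C. Beta-arrestin recruitment was read as luminescence after 1 h with detection reagent at ambient temperature.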
# Six1-Eya2 inh = Six1/Eya2 interaction inhibition. Q15475+O00167. AlphaScreen GST-Six1/His-Eya2 binding, biochemical; hits give low values; control for the full effect not named in the record. activity change, % (no concentration beside the values). 360,000 tested, 0.56% active. AID 651725; in the data active = activity change below about -65%; inconclusive = about -30% to -65%; inactive = above about -30%; also: % is scaled to controls: 0 for no effect and ±100 for the full control effect; compound concentration not given in the record
# Target sequence (O00167 whole entry, looked up): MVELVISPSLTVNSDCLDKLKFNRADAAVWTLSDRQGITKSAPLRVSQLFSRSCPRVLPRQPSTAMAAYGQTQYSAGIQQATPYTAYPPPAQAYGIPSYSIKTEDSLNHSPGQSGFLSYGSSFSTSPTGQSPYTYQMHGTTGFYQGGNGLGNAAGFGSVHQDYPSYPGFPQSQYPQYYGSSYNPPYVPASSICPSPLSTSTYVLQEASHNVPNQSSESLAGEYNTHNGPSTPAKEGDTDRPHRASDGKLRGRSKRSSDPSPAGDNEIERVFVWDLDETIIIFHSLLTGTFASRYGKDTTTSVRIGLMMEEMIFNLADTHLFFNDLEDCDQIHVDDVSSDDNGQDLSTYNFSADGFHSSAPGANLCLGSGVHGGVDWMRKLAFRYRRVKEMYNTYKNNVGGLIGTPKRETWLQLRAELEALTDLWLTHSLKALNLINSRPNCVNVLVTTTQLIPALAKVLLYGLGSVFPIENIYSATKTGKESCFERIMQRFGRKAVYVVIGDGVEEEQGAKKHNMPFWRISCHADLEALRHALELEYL
# Target sequence (Q15475 whole entry, looked up): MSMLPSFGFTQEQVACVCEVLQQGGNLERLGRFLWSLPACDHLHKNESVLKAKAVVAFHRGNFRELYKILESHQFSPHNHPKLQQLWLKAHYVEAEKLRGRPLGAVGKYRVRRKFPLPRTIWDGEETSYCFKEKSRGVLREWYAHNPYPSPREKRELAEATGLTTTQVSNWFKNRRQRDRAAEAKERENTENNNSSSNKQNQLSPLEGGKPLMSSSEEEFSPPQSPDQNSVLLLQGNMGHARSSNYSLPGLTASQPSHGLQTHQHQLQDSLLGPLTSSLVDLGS
#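 GST-Six1 + His-Eya2 (5X stock: 250/500 nM); Tris pH 8.0, 300 mM NaCl, 0.05% BSA, 0.02% Tween 20; GSH donor/Ni acceptor beads; 1 h 37 °C dark; AlphaScreen readout.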
# gsp agonist = agonists of gsp mutant (McCune-Albright syndrome) | gsp mutant cells, cAMP HTRF, 30 min; control for the full effect not named in the record | Potency, µM (top dose mostly 76.9 µM), for the others: top-dose activation (cAMP increase), most hits filed as activators | 340,000 tested, 0.13% active | AID 624287; active = well fitted activation curve with a large enough effect; inconclusive = small, poorly fitted or top-dose-only effect, or another doubt; inactive = no such curve, though single readings can be large or run the other way; cell line not stated here;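 also: phosphodiesterase inhibitor Ro 20-1724 added with compounds to block cAMP breakdown; potency is read from the fitted curve at half-maximal effect; nearly all actives have a fitted effect of over 60% in size; about a fifth of the inactives were tested at one dose only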
#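 Cells stably selected in G418 were plated at 2000/well, grown 16-24 hr, then given compounds in DMSO with the PDE inhibitor […] (300 uM solution added) for 30 min at 37C; cAMP was read by HTRF.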
# D2 ag = human D2 receptor agonism in beta-arrestin assay; P14416; activation, % (no concentration beside the values); DiscoveRx PathHunter D2 beta-arrestin, luminescence, 90 min; 100% = 57 uM dopamine signal; 360,000 tested, 0.084% active; AID 624465; in the data active = activation above about 40%; inconclusive = about 15% to 40%; inactive = below about 15%; also: compound concentration not given in the record; the text of the record calls up to 30% inactive
#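 DiscoveRx PathHunter D2 beta-arrestin cells (2,100/well) attached overnight, then compound-stimulated 90 min at 37 C in HBSS/10 mM HEPES/0.1% Tween-20 buffer; beta-galactosidase complementation read by luminescence after 1 h at ambient temperature. Dopamine 57 uM final (EC100) as control.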
# gsp antag = antagonists of gsp mutant (McCune-Albright syndrome); gsp-mutant cells, cAMP HTRF, 30 min; control for the full effect not named in the record; Potency, µM (doses to about 76.9 µM), without a hit: at the highest dose activity change, negative = inhibition, actives largely listed as inhibitors; 340,000 tested, 0.4% active; active = falling curve of any shape with a large fitted effect; inconclusive = falling curve, mostly with a smaller effect; inactive = flat or rising curve; cell line not stated here;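 also: intracellular cAMP measured with PDE inhibitor Ro 20-1724 present during compound exposure; potency is read from the fitted curve at half-maximal effect; % is scaled to controls: 0 for no effect and ±100 for the full control effect; nearly all actives have a fitted effect of over 65% in size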
#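 Measurement of cellular cAMP by homogeneous time-resolved fluorescence following a 30 min compound exposure at 37C. The PDE inhibitor […] was present throughout; the assay buffer was DPBS with 0.05% BSA and 0.005% Tween 20.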
# * hit, by the source's call; ? = inconclusive; / = not tested or not shown; [ ] = remark or other dose.
SMILES,CtBP-E1A inh,D2 PAM,Six1-Eya2 inh,gsp agonist,D2 ag,gsp antag
COC(=O)C1(C)NC(c2ccc(O)cc2)C2C(=O)N(c3ccc(C)cc3)C(=O)C21 (stereo not drawn),2,-1,-2,-14%,7.3,-6%
CCCCNC(=S)Nc1ccc2cn[nH]c2c1,-3,-3,3,24%[15.4 µM],1.2,13%
CCn1cc(C2=NOC(C(=O)O)C2)c(C)n1 (stereo not drawn),12,-7,3,-34%[inhibitor],-1.6,10%
O=C(C[C@H]1C/C=C/CC[C@@H](Cc2ccc(F)cc2)C(=O)OC[C@H](c2ccccc2)NC1=O)NCCO,1,-8,7,-11%,0.2,7%
Cc1ccc(NC2=NCCC2)cc1Cl,0,-19,3,-28%,-0.2,0%
O=C(COC(=O)c1cc(Br)ccc1O)NCCC1=CCCCC1,3,-12,-8,-50%[inhibitor],-1.1,/
CCOC(=O)c1c(COC(=O)c2ccco2)nc2ccccc2[n+]1[O-],13,3,-7,14%,1.3,-8%
Cc1noc(C)c1CSc1nc2ccccc2c(=O)n1-c1ccccc1,-1,-25,-10,10%,-4.6,7%
COc1cc(OC)c2c(N)c(C#N)c(C(F)(F)C(F)(F)F)nc2c1,0,-5,0,-56%[inhibitor],-0.4,14%
CCOc1ccc(NC(=S)NNC(=O)c2cc(Br)ccc2Cl)cc1,7,-22,-1,9%[15.4 µM],-4.2,/
COc1cc(/C=C(/NC(=O)c2ccccc2)C(=O)N2CCN(C)CC2)c([N+](=O)[O-])cc1OC,/,-5,2,-15%,1.6,-12%
O=C(CSc1nc2c(c(=O)n1-c1ccc(Cl)cc1)SCC2)Nc1ccc2c(c1)OCCO2,-18,-1,-4,-41%[inhibitor],-0.9,-6%
O=C(CCNS(=O)(=O)c1ccc(Br)cc1)N1CCCCCCC1,-5,-33,10,-15%[15.4 µM],0.1,5%
Cc1ccccc1-n1c(-c2ccncc2)n[nH]c1=S,-2,-2,4,-23%[15.4 µM],-2.2,3%
COc1ccc(NS(=O)(=O)c2ccc(N3CCOCC3)c(NC(=O)c3ccco3)c2)cc1,0,-8,-28,-7%[15.4 µM],0.0,-23%
COc1ccccc1NC(=O)Cc1csc(NC(=S)Nc2ccc(C)cc2)n1,-13,-21,-6,-41%[inhibitor],-3.2,-9%
COc1ccc(NS(=O)(=O)c2ccc(N/N=C/c3ccc(N4CCOCC4)cc3)c([N+](=O)[O-])c2)cc1,-3,-6,0,-16%[15.4 µM],-2.1,18%
CN(C)c1ncnc(N(C)C)c1[N+](=O)[O-],0,-5,0,6%[15.4 µM],-1.5,14%
COc1cc(OC)c2ccc(=O)oc2c1C(CC(=O)N1CCN(c2ccccc2)CC1)c1ccc2c(c1)OCO2 (stereo not drawn),-21,-13,-21,/,3.2,-26%
COc1ccc(NC(=O)Nc2c[nH]c(=O)[nH]c2=O)cc1,8,-3,-9,-11%[15.4 µM],2.4,0%
COc1ccc(S(=O)(=O)NCC2CCCN(Cc3ccc(O)cc3)C2)cc1 (stereo not drawn),3,-17,1,-42%[inhibitor],-0.9,10%
O=C(Cn1ccc(C(F)(F)F)n1)N=Nc1c(O)[nH]c2ccccc12,/,-7,-3,10%[15.4 µM],4.9,-3%
CCc1ccc(NC(=O)c2cc(C)no2)cc1,15,-5,8,-1%[15.4 µM],-1.5,1%
O=C(CN1CCN(c2ccc(O)cc2)CC1)Nc1ccccc1C(=O)NCCc1ccccc1,-7,16,-9,?,?,-18%
CC1(C)CNC(=O)c2sc(N3CCOCC3)nc2C1,-24,-3,-7,-15%,-2.9,8%

# In a second layout: 14 of the compounds above
CtBP-E1A inh | D2 PAM | Six1-Eya2 inh | gsp agonist | D2 ag | gsp antag | SMILES
-3 | -3 | 3 | 24%[15.4 µM] | 1.2 | 13% | CCCCNC(=S)Nc1ccc2cn[nH]c2c1
12 | -7 | 3 | -34%[inhibitor] | -1.6 | 10% | CCn1cc(C2=NOC(C(=O)O)C2)c(C)n1 (stereo not drawn)
1 | -8 | 7 | -11% | 0.2 | 7% | O=C(C[C@H]1C/C=C/CC[C@@H](Cc2ccc(F)cc2)C(=O)OC[C@H](c2ccccc2)NC1=O)NCCO
0 | -19 | 3 | -28% | -0.2 | 0% | Cc1ccc(NC2=NCCC2)cc1Cl
3 | -12 | -8 | -50%[inhibitor] | -1.1 | / | O=C(COC(=O)c1cc(Br)ccc1O)NCCC1=CCCCC1
13 | 3 | -7 | 14% | 1.3 | -8% | CCOC(=O)c1c(COC(=O)c2ccco2)nc2ccccc2[n+]1[O-]
-1 | -25 | -10 | 10% | -4.6 | 7% | Cc1noc(C)c1CSc1nc2ccccc2c(=O)n1-c1ccccc1
0 | -5 | 0 | -56%[inhibitor] | -0.4 | 14% | COc1cc(OC)c2c(N)c(C#N)c(C(F)(F)C(F)(F)F)nc2c1
7 | -22 | -1 | 9%[15.4 µM] | -4.2 | / | CCOc1ccc(NC(=S)NNC(=O)c2cc(Br)ccc2Cl)cc1
/ | -5 | 2 | -15% | 1.6 | -12% | COc1cc(/C=C(/NC(=O)c2ccccc2)C(=O)N2CCN(C)CC2)c([N+](=O)[O-])cc1OC
-18 | -1 | -4 | -41%[inhibitor] | -0.9 | -6% | O=C(CSc1nc2c(c(=O)n1-c1ccc(Cl)cc1)SCC2)Nc1ccc2c(c1)OCCO2
-5 | -33 | 10 | -15%[15.4 µM] | 0.1 | 5% | O=C(CCNS(=O)(=O)c1ccc(Br)cc1)N1CCCCCCC1
-2 | -2 | 4 | -23%[15.4 µM] | -2.2 | 3% | Cc1ccccc1-n1c(-c2ccncc2)n[nH]c1=S
0 | -8 | -28 | -7%[15.4 µM] | 0.0 | -23% | COc1ccc(NS(=O)(=O)c2ccc(N3CCOCC3)c(NC(=O)c3ccco3)c2)cc1

# (cont.)
SMILES,CtBP-E1A inh,D2 PAM,Six1-Eya2 inh,gsp agonist,D2 ag,gsp antag
CCC(C)Sc1nnc(-c2c[nH]c3ccccc23)n1CCOC (stereo not drawn),3,-11,2,?,-1.7,-5%
O=C(CN1CCCCC1)Nc1nnc(-c2ccc([N+](=O)[O-])cc2)s1,-8,?,-19,34%,6.4,?
CC(=O)Nc1ccc(OC(=O)c2ccc(Cl)cc2)cc1,10,-14,-20,-11%[15.4 µM],0.8,14%
CC1(C)NC(=O)N(CN2C(=O)NC(C)(C)C2=O)C1=O,9,-11,-2,-10%,-0.9,9%
O=C(N/C(=C\c1ccc(-c2ccccc2)o1)C(=O)N1CCOCC1)c1ccccc1,-12,-13,-24,-14%[15.4 µM],-2.1,-22%
COc1ccc(C(=O)NNC(=O)c2cc3cc(OC)ccc3oc2=O)cc1,-1,-17,-10,-4%[15.4 µM],0.1,-15%
COc1ccccc1N(C(C)=O)c1nc(C)cc(C)c1C#N,1,7,5,5%,-1.6,3%
c1ccc(CNc2nc(-c3cccnc3)nc3ccccc23)cc1,/,-7,-16,18%,-1.2,-19%
COc1cc(C(=O)N[C@H](C(=O)NC2CCCc3ccccc32)C(C)C)cc(OC)c1OC (stereo partly drawn),2,-2,4,1%[15.4 µM],-4.9,-4%
O=C(NNC(=O)c1ccccc1Cl)c1ccc(-n2cncn2)c([N+](=O)[O-])c1,9,0,8,-10%,0.1,4%
O=C(c1ccccc1)N(C1=NCCCCS1)c1ccccc1,-19,-13,9,2%[15.4 µM],-1.3,1%
COc1ccc(/C=C/C(=O)Nc2nc(C)c(C(=O)N(C)C)s2)cc1,4,4,4,4%,2.7,5%
CC1CCc2c(C(=O)Nc3ccc(N4CCOCC4)cc3)csc2C1 (stereo not drawn),7,-10,-2,-5%[15.4 µM],-3.8,-1%
CCOc1cc2[nH]c(=S)n(CCC(=O)NCc3ccco3)c(=O)c2cc1OCC,-5,6,-3,-11%[15.4 µM],-4.0,-30%
CC(C)(C)NC(=O)/C(=C\c1cccnc1)NC(=O)c1ccco1,8,-1,7,9%,3.2,12%
CCOC(=O)CSc1nnc(Cn2c(=O)sc3ccccc32)n1-c1ccccc1C,-18,-2,11,?,-7.0,1%
O=C(Nc1cccc(C(=O)N2CCCC2)c1)c1ccccc1Cl,2,-6,3,-5%,-1.3,-1%
COc1ccc(N2CCN(S(=O)(=O)c3ccc4c(c3)NC(=O)C(C)S4)CC2)cc1 (stereo not drawn),-12,24,-19,39%,2.9,-17%
CC(=O)c1ccc(NC(=O)C(C)OC(=O)CCCN=C2NS(=O)(=O)c3ccccc32)cc1 (stereo not drawn),-9,-9,0,5%,-4.6,4%
c1ccc2c(c1)oc1c(NCCN3CCOCC3)ncnc12,-21,-9,-9,10%,0.3,0%
COc1ccc(C(=O)N/C(=C\c2ccccc2)C(=O)NCc2cccnc2)cc1,-8,-4,-11,4%,6.2,-2%
COCCNC(=O)c1ccc(-c2ccc(OC)cc2C)c2ccoc12,0,2,-9,/,13,/
CC(C)C(=O)Nc1cccnc1,/,-1,0,19%,1.0,11%
O=C(N/N=C/c1cccnc1)c1ccccc1NS(=O)(=O)c1cccs1,8,-2,-6,-3%[15.4 µM],-0.7,-6%
CCCn1c(SCC(=O)Nc2ccc3c(c2)OCCO3)n[nH]c1=O,-3,-12,2,-14%[15.4 µM],-2.6,11%

# Complete entries, quoted from the list. Screens in order: CtBP-E1A inh	D2 PAM	Six1-Eya2 inh	gsp agonist	D2 ag	gsp antag
# `CC(C)(C)NC(=O)/C(=C\c1cccnc1)NC(=O)c1ccco1` reads 8	-1	7	9%	3.2	12%
# `COc1ccccc1N(C(C)=O)c1nc(C)cc(C)c1C#N` reads 1	7	5	5%	-1.6	3%

# (continued)
SMILES,CtBP-E1A inh,D2 PAM,Six1-Eya2 inh,gsp agonist,D2 ag,gsp antag
C[C@H]1CN([C@@H](C)CO)C(=O)Cc2cc(NS(C)(=O)=O)ccc2O[C@@H]1CN(C)CC1CC1,5,-4,1,4%,-7.2,9%
Cc1cc(CN2CCCCC2C(=O)Nc2ccc(Oc3cccnc3)cc2)oc1C (stereo not drawn),17,0,0,-4%,4.6,?
CSc1ccccc1C(=O)C1CCCN(C(=O)CCc2cccnc2)C1 (stereo not drawn),11,0,0,7%,7.0,-3%
Cc1cc(=O)oc2cc(OC(C)C(=O)Nc3ccc(N4CCCCC4)cc3)ccc12 (stereo not drawn),-13,-12,-19,-72%[inhibitor],-1.3,-24%
COc1ccc(OC)c(C2=Nn3c(nnc3-c3ccncc3)SC2)c1,2,-4,3,7%[15.4 µM],-2.5,-2%
CCOc1cc(/C=C/C(=O)OCC(=O)N(CC)C2CCS(=O)(=O)C2)cc(Cl)c1OC (stereo not drawn),-6,5,0,-46%[inhibitor],0.4,/
